Screening data (PubChem BioAssay)
BJeLR viab HTS: compounds reducing viability of BJeLR cells | viability loss activity score, % (concentration not given with the values) | 30,000 compounds, 0.64% hits | BJeLR fibroblasts viability, CellTiterGlo ATP luminescence, 48 h; HRASV12, hTERT and SV40 LT/ST transformed; in the data active = viability loss activity score above about 50%; inconclusive = no clear call, values can overlap the other calls; inactive = below about 35%; about a fifth of its hits are not listed in these tables;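 also: higher score means fewer live cells and less ATP luminescence; stock transfer was 50 or 100 nL into about 30 µL; 0% = vehicle wells and 100% = a reference killing control; one replicate is shown; the record names a cut of 85%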
A1 inh: A1 inhibition; MEF A1-2A-BIM cells, caspase-Glo luminescence, 3 h; percent of clofoctol signal, DMSO as zero; caspase activation, % (no concentration beside the values); 21,000 compounds, 0.51% hits; AID 2241;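 active = most replicate scores above 10, or exactly half above 10 with mean activity above 10; inconclusive = mean activity below 10 while half the replicates exceed 10; inactive = most replicate scores below 10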;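 also: effector caspase 3 and 7 activity cleaving a DEVD luciferin substrate; 50 nL library stock added to about 30 µL; numbers are from one replicate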
The depositor's hits bear a star; ? = inconclusive; . = not tested or not shown.

Order of values – BJeLR viab HTS	A1 inh
COc1ccc(NC(=O)N(C)C[C@@H]2Oc3c(NC(=O)Nc4cccc5ccccc45)cccc3C(=O)N([C@H](C)CO)C[C@H]2C)cc1
    1.9	.
Cc1ccc(S(=O)(=O)N(C)C[C@@H]2Oc3ccc(NC(=O)Nc4ccc(F)cc4)cc3C(=O)N([C@H](C)CO)C[C@@H]2C)cc1
    4.5	0.2
C[C@H](CO)N1C[C@H](C)[C@@H](CN(C)Cc2ccc3c(c2)OCO3)Oc2c(NS(=O)(=O)c3cn(C)cn3)cccc2C1=O
    -1.3	.
Cc1ccc(S(=O)(=O)N2CCN(C/C=C/c3ccccc3)CC2)c(C)c1C
    2.4	.
O=C(NC1CC1)c1ccc2c(c1)N(Cc1ccccc1)C(=O)CS2
    -2.8	0.0
Cc1cccc(Oc2ccc(N3C(=O)C4C5C=CC(C5)C4(C)C3=O)cc2)c1C (stereo unspecified)
    12	-0.5
Cc1ccc(CCn2c(C)c(C)c3ccccc32)cn1
    5.2	.
COc1cccc(Nc2nnc(-c3cc4cccc(OC)c4oc3=O)s2)c1
    -7.1	1.1
CCCCCC(O)c1cccc(OCc2ccc3ccccc3n2)c1 (stereo unspecified)
    -4.7	-0.7
COC(=O)COc1cc(C)ccc1C
    -2.6	0.6
C[C@@H]1CN([C@H](C)CO)C(=O)c2cccc(NS(=O)(=O)c3cn(C)cn3)c2O[C@H]1CN(C)Cc1ccc(C(F)(F)F)cc1
    -3.3	.
Cc1ccc(CNC(=O)C2CNc3cc(C)ccc3O2)cc1 (stereo unspecified)
    1.6	-0.6
C[C@H]1CN([C@@H](C)CO)C(=O)c2cc(NC(=O)NC3CCCCC3)ccc2O[C@@H]1CN(C)S(=O)(=O)c1ccccc1
    -2.3	-0.3
CCC1(CC)COC2(OC1)C(=O)Nc1ccc(F)cc12
    -1.5	-0.1
C[C@@H]1CN([C@@H](C)CO)C(=O)c2cccc(NC(=O)Nc3ccccc3)c2O[C@H]1CN(C)S(=O)(=O)c1cccs1
    2.6	.
COc1ccc(S(=O)(=O)Nc2cccc3c2O[C@H](CN(C)Cc2ccc(Cl)c(Cl)c2)[C@@H](C)CN([C@H](C)CO)C3=O)cc1
    -1.8	.
CCOc1ccc(-c2cc(CCCC(=O)Nc3ccc(CC)cc3)no2)cc1
    0.2	.
CCCNC(=O)Cn1ncc2c3ccccc3n(Cc3ccccc3)c2c1=O
    1.3	2.2
COc1ccc(NC(=O)N(C)C[C@@H]2Oc3c(NC(=O)NC4CCCCC4)cccc3C(=O)N([C@H](C)CO)C[C@@H]2C)cc1
    -0.9	.
C[C@@H]1CN([C@H](C)CO)C(=O)c2cccc(NC(=O)Nc3ccc4c(c3)OCO4)c2O[C@@H]1CN(C)Cc1ccc(Oc2ccccc2)cc1
    -6.4	.
COc1ccc(S(=O)(=O)N(C)C[C@H]2Oc3c(NC(=O)C4CCOCC4)cccc3C(=O)N([C@@H](C)CO)C[C@@H]2C)cc1
    -4.8	.
CCn1cc(C(=O)NC2CCCC2)c(=O)c2cc(S(=O)(=O)N3CCCCC3)ccc21
    1.0	.
Cc1ccc(S(=O)(=O)N(C)C[C@H]2Oc3c(NC(=O)Nc4ccc(C(F)(F)F)cc4)cccc3C(=O)N([C@H](C)CO)C[C@@H]2C)cc1
    0.7	.
C[C@H]1CN([C@@H](C)CO)C(=O)c2cccc(N(C)C)c2O[C@@H]1CN(C)C(=O)Nc1ccc2c(c1)OCO2
    2.8	.
CN(CCOC(=O)c1ccc(Cl)cc1)c1ncc(C(F)(F)F)cc1Cl
    -3.1	-0.1
CCOC(=O)c1nnc2c(Br)c(C)nn2c1C
    -2.9	-2.1
CCc1ccc2nc(N(CCN(C)C)C(=O)C3COc4ccccc4O3)sc2c1 (stereo unspecified)
    2.2	.
Cc1ccc(S(=O)(=O)N(C)C[C@@H]2Oc3c(NC(=O)NC4CCCCC4)cccc3C(=O)N([C@H](C)CO)C[C@H]2C)cc1
    4.1	.
COC(=O)N(C)CC1Cc2ccccc2O1 (stereo unspecified)
    3.8	-0.8
Cc1noc(C)c1NC(=O)N(C)C[C@@H]1Oc2ccc(NS(C)(=O)=O)cc2C(=O)N([C@H](C)CO)C[C@@H]1C
    -5.6	-0.1
CC(C)NC(=O)Nc1ccc2c(c1)C(=O)N([C@H](C)CO)C[C@@H](C)[C@@H](CN(C)C(=O)Nc1cccc3ccccc13)O2
    6.7	0.0
C[C@@H]1CN([C@H](C)CO)C(=O)c2cc(NS(=O)(=O)c3ccccc3)ccc2O[C@H]1CN(C)S(=O)(=O)c1ccc(F)cc1
    3.3	0.2
C[C@H](CO)N1C[C@H](C)[C@H](CN(C)Cc2ccc(Oc3ccccc3)cc2)Oc2c(NC(=O)c3cnccn3)cccc2C1=O
    1.0	.
O=C1C2CC=CCC2C(=O)N1c1ccccc1O (stereo unspecified)
    -4.9	0.3
COc1ccc(CCNC(=S)N(C)C)cc1OC
    -3.4	0.3
COC1C=CC23c4cc5c(cc4CN(C[C@H]2O)[C@@H]3C1)OCO5 (stereo partly specified)
    7.9	-0.2
Cc1ccc(CCNC(=O)C2CCN(c3nc4ccccc4o3)CC2)cc1
    -1.4	0.0
C[C@H]1CN([C@@H](C)CO)C(=O)c2cccc(NC(=O)Nc3ccc(C(F)(F)F)cc3)c2O[C@@H]1CN(C)C(=O)Nc1ccc(C(F)(F)F)cc1
    0.7	.
COc1ccc(S(=O)(=O)N(C)C[C@H]2Oc3ccc(NS(=O)(=O)c4ccc(Cl)cc4)cc3C(=O)N([C@H](C)CO)C[C@H]2C)cc1
    -1.2	-0.4
CC(=O)Oc1ccc2ccc3ccc(OC(C)=O)c4ccc1c2c34
    2.2	-0.5
C[C@H]1CN([C@@H](C)CO)C(=O)c2cccc(NS(=O)(=O)c3ccc(Cl)cc3)c2O[C@@H]1CN(C)S(=O)(=O)c1cn(C)cn1
    0.9	.
COc1ccc(NC(=O)N(C)C[C@H]2Oc3c(NS(=O)(=O)c4ccc(C)cc4)cccc3C(=O)N([C@H](C)CO)C[C@H]2C)cc1
    18	.
Cc1csc2nc(CNC(=O)C3CCCCC3)cn12
    0.7	-0.3
O=S(=O)(NCc1ccc(-c2cccs2)cc1)c1cccs1
    4.9	0.3
CC(C)(C)NC(=O)N1c2ccccc2Sc2ccccc21
    9.9	-0.2
Cc1ccccc1NC(=O)c1cccc(Cn2cc(C(F)(F)F)ccc2=O)c1
    -1.9	0.7
Cc1cc(C)c2c3c1C1C=CCC1CN3C(C(=O)O)C1CC=CC21 (stereo unspecified)
    8.2	-0.8
CCOC(=O)C(C#N)C1(c2c(C)[nH]n(-c3ccccc3)c2=O)C(=O)N(c2ccccc2)N=C1C (stereo unspecified)
    5.7	-0.5
COc1ccc(NC(=O)Nc2ccc3c(c2)C(=O)N([C@H](C)CO)C[C@@H](C)[C@H](CN(C)C(=O)NC2CCCCC2)O3)cc1
    5.1	0.2
CC1(C)CCC(C)(C)c2cc(C(=O)Nc3ccc(C(=O)O)cc3)ccc21
    17	0.6
CCC(C)NC(=O)c1ccc(N(CC)CC)cc1 (stereo unspecified)
    -4.1	0.2
Cc1ccc(S(=O)(=O)N(C)C[C@H]2Oc3c(NC(=O)C4CCOCC4)cccc3C(=O)N([C@H](C)CO)C[C@@H]2C)cc1
    -6.5	.
CCc1ccc(/C=C2\CN(C)C/C(=C\c3ccc(CC)cc3)C2O)cc1
    0.9	-0.8
CCn1cc(C(=O)O)c(=O)c2cc(S(=O)(=O)N(C)C3CCCCC3)ccc21
    -1.5	1.5
O=C(O)CCC(=O)OCc1ccccc1
    0.8	-2.2
CCCNC(=O)c1ccccc1Br
    0.2	0.4
Cn1c(=O)cc(SCC(=O)N2CCN(c3cccc(Cl)c3)CC2)c2ccccc21
    0.8	.
COC(=O)C1=C(C)N(C2CCCCC2)C(=O)/C1=C\c1cccs1
    -3.2	.
O=C(NCCCn1ccnc1)c1ccccc1Cl
    -4.5	.
CCOc1ccc(CO[C@@H]2O[C@H](CO)[C@@H](O)[C@H](O)[C@H]2NC(C)=O)cc1OC
    5.1	0.9

4 of these compounds in a different format.
> Cc1cc(C)c2c3c1C1C=CCC1CN3C(C(=O)O)C1CC=CC21 (stereo unspecified)
  BJeLR viab HTS: 8.2; A1 inh: -0.8
> CCOC(=O)C(C#N)C1(c2c(C)[nH]n(-c3ccccc3)c2=O)C(=O)N(c2ccccc2)N=C1C (stereo unspecified)
  BJeLR viab HTS: 5.7; A1 inh: -0.5
> COc1ccc(NC(=O)Nc2ccc3c(c2)C(=O)N([C@H](C)CO)C[C@@H](C)[C@H](CN(C)C(=O)NC2CCCCC2)O3)cc1
  BJeLR viab HTS: 5.1; A1 inh: 0.2
> CC1(C)CCC(C)(C)c2cc(C(=O)Nc3ccc(C(=O)O)cc3)ccc21
  BJeLR viab HTS: 17; A1 inh: 0.6

Following part:
Order of values – BJeLR viab HTS	A1 inh
CN(C)c1ccc(/C=C2\Cc3ccccc3C2=O)cc1
    -2.8	.
COc1ccc2nc(C)cc(Nc3ccccc3)c2c1
    2.8	-0.2
COC(=O)C1=C(C)NC(C)=C(C(=O)OCCCN2CCC(c3ccccc3)(c3ccccc3)CC2)C1c1cccc([N+](=O)[O-])c1 (stereo unspecified)
    -2.7	-0.3
COc1ccc(-n2cc(-c3ccccc3)c3c(NCc4ccccc4)ncnc32)cc1
    2.2	-0.9
CCOC(=O)c1cc2n(n1)C(C(F)(F)F)CC(c1ccccc1)N2 (stereo unspecified)
    -1.5	-0.3
COc1cc(OC)cc(C(=O)N/C(N)=N/c2nc3ccccc3s2)c1
    ?	4.5
CCOc1ccc(N=c2scc(-c3ccc(S(=O)(=O)N4CCCC4)cc3)n2CC)cc1
    -0.9	.
CCC1C(=O)O[C@]23C=C[C@@H]4C(C(=O)O)=CO[C@H](OC12)[C@@H]43 (stereo partly specified)
    -3.0	-0.6
CC1(C)CC[C@]2(C(=O)O[C@@H]3O[C@H](CO)[C@@H](O)[C@H](O)[C@H]3O)CC[C@]3(C)C(=CCC4[C@@]5(C)CC[C@@H](O[C@@H]6O[C@H](C(=O)O)[C@@H](O[C@@H]7OC[C@@H](O)[C@H](O)[C@H]7O)[C@H](O[C@@H]7OC[C@](O)(CO)[C@H]7O)[C@H]6O)C(C)(C)C5CC[C@]43C)C2C1 (stereo partly specified)
    -3.0	0.7
CSc1n[nH]c(=O)c2cc(C)nn12
    -3.3	-0.1
C[C@H](CO)N1C[C@H](C)[C@@H](CN(C)C(=O)Nc2ccc3c(c2)OCO3)Oc2ccc(NC(=O)C3CC3)cc2C1=O
    2.1	-0.9
CC(C)NC(=O)Nc1cccc2c1O[C@H](CN(C)C(=O)Nc1ccccc1)[C@H](C)CN([C@H](C)CO)C2=O
    0.8	.
CCCCn1c(O)c(C#N)c(C)cc1=O
    -1.5	-0.1
C[C@@H]1CN([C@H](C)CO)C(=O)c2cccc(NC(=O)C3CCOCC3)c2O[C@H]1CN(C)S(=O)(=O)c1ccc(Cl)cc1
    -3.9	.
CCc1ccc(OC(C)C(=O)N(Cc2ccccc2)C2CCS(=O)(=O)C2)cc1 (stereo unspecified)
    -1.8	-0.1
COc1ccc(CN(C)C[C@H]2Oc3c(NC(=O)NC4CCCCC4)cccc3C(=O)N([C@H](C)CO)C[C@@H]2C)cc1
    -4.3	.
C[C@H]1CN([C@@H](C)CO)C(=O)c2cc(NC(=O)Cn3cnnn3)ccc2O[C@H]1CN(C)Cc1ccncc1
    -5.1	0.7
O=C(O)c1cccc2cccc(S(=O)c3cccc4cccc(CO)c34)c12 (stereo unspecified)
    0.0	0.1
CCOC(=O)c1ccc(N2CCN(c3ccccc3F)CC2)c(NC(=O)Nc2ccc(CC)cc2)c1
    3.5	0.2
COc1cc(OC)c2ccc(=O)oc2c1
    2.8	0.4
COc1ccc(C2=NN(S(C)(=O)=O)C(c3ccc(C)cc3)C2)cc1 (stereo unspecified)
    -3.4	-2.5
COc1ccc(NC(=O)Nc2cccc3c2O[C@H](CN(C)S(=O)(=O)c2ccc(OC)cc2)[C@@H](C)CN([C@@H](C)CO)C3=O)cc1
    1.9	.
CC1(C)Oc2ccc(NC(=O)C3(c4ccccc4)CCCC3)cc2O1
    -1.7	0.0
C[C@H](CO)N1C[C@H](C)[C@H](CN(C)S(=O)(=O)c2cn(C)cn2)Oc2c(NC(=O)c3ccncc3)cccc2C1=O
    -3.8	.
C[C@@H]1CN([C@H](C)CO)C(=O)c2cccc(NC(=O)c3cnccn3)c2O[C@@H]1CN(C)C(=O)Nc1ccc(F)cc1
    -0.6	.
C[C@@H]1CN([C@H](C)CO)C(=O)c2cc(NC(=O)c3ccncc3)ccc2O[C@H]1CN(C)S(=O)(=O)c1cccs1
    -0.4	0.1
Cc1ccc(/C=c2\sc3ncnn3c2=O)o1
    0.5	-0.5
CN1C(=O)CC(c2ccccc2)S(=O)(=O)c2ccccc21 (stereo unspecified)
    2.0	1.3
Cc1cccc(OCC(=O)NS(=O)(=O)c2ccc(Cl)cc2)c1
    -2.6	.

The list is partial; the hit share may differ from the screen's.
